Assay outcomes from PubChem BioAssay.
MT1-MMP act inh: inhibitors of human MT1-MMP activation | P50281 | HT1080 RFP-PRO-GFP cells, GFP/RFP ratio fluorescence, overnight; percent of plate control window, DMSO zero | GFP/RFP ratio change, % at 20 µM | hit rate 0.061% among 360,000 | AID 651647;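 active means GFP/RFP ratio change of at least 30% with cell ATP level not reduced by more than half and red fluorescence within 50% of control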; further: strong numbers were not always called active
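Read-out: GFP/RFP fluorescence ratio; Test system: RFP-PRO-GFP reporter HT1080 cells; Compound dosing: single-point 20 µM compound, 1% DMSO; Times: overnight compound exposure at 37 °C.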
PABP polyA inh: blocks human PABP binding to poly(A) RNA | fluorescence polarization | inhibition, % at 35 µM | hit rate 1% among 290,000 | AID 2014;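 active means 50% or more with normal probe brightness, or confirmed in later tests; inconclusive means above 50% with abnormal brightness, or retests that disagree; inactive means below 50% or failed in later tests; about a fifth of its hits are not listed in these tables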;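 further: calls also rest on retests at 20 µM and on dose response follow-up; controls were probe without protein and protein plus probe with vehicle; some compounds called inactive have numbers as strong as hits; many hits fall short of the cut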
Target sequence (P11940 whole entry, looked up): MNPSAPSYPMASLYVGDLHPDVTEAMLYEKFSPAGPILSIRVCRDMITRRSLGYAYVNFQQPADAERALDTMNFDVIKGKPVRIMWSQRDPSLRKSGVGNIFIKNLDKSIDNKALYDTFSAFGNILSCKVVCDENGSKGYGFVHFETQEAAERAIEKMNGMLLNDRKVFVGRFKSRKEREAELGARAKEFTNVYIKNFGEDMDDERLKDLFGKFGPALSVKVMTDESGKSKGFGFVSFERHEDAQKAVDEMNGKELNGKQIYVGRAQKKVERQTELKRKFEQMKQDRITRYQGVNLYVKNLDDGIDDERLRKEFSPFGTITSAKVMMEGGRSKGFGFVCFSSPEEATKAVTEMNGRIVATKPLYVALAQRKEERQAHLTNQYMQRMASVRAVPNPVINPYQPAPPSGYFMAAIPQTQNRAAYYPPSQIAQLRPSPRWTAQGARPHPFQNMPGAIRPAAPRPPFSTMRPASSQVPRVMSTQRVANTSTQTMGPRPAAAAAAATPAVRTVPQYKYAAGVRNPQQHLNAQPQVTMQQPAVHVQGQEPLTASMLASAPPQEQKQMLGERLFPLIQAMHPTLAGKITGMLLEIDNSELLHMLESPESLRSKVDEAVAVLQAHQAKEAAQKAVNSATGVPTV
Rce1 inhib: blocks yeast Ras-converting enzyme; Q03530; yeast membranes, quenched prenylated peptide cleavage fluorescence; calls only; hit rate 0.27% among 290,000; AID 2563;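 active means fall in fluorescence gain of 50% or more versus controls, with final raw signal at or below 3038400; inconclusive means same 50% fall but final raw signal above 3038400; inactive means fall in fluorescence gain under 50%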;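 further: plate controls were neutral control wells for no effect and wells lacking membranes for full effect; tested at 10 µM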
Target sequence (Q03530 whole entry, looked up): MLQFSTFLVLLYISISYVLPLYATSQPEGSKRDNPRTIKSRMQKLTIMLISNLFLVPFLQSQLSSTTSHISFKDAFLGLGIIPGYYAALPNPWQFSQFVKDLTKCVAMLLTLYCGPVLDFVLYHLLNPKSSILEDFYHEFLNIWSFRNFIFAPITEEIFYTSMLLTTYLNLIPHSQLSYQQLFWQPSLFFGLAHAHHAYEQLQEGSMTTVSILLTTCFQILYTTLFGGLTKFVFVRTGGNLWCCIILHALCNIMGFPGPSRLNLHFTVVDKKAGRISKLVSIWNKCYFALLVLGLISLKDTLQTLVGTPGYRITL
UUG fidelity: modulators of start codon recognition fidelity in yeast; S. cerevisiae UUG-firefly luciferase reporter, luminescence/redox ratio; activity score, % at 18.7 µM; hit rate 0.13% among 350,000; AID 602363;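 active means replicate mean at a twofold rise or more, about +100% in these data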;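 further: firefly luciferase made from a UUG start codon reports start codon fidelity; reporter light over untreated wells divided by growth signal over untreated wells; some hits fall short of that in this replicate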
eIF4H FP inh: inhibitors of RNA binding by human eIF4H | inhibition, % at 35 µM | eIF4H fluorescence polarization binding assay | Q15056 | hit rate 0.94% among 290,000;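 active means 50% or more with normal probe brightness, or confirmed in later tests; inconclusive means above 50% with abnormal brightness, or retests that disagree; inactive means below 50% or failed in later tests; about a fifth of its hits are not listed in these tables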;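 further: calls also rest on retests at 20 µM and on dose response follow-up; 0% = protein and probe with vehicle and 100% = probe without protein; strong numbers were not always called active; many hits fall short of the cut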
CSC inhib: cancer stem cell inhibition | inhibition, % at 7.5 µM | hit rate 1.1% among 300,000 | cancer stem cell-like cells viability, luminescence | AID 2717;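 active means mean at 75% or more and at least half the replicates too; inconclusive means mean and replicates disagree; tested in HMLE shEcad cells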;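 further: 0% = median of negative and 100% = median of positive control wells; the first replicate is given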
HIV Env fusion: inhibitors of HIV Env-mediated cell fusion. HeLa-JRFL Env/CEM21 cell fusion, luciferase. inhibition, % at 12.3 µM. hit rate 1.1% among 360,000;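 active means mean replicate inhibition score of at least 50 and every replicate individually at or above 50; inconclusive means only one of the two criteria met; inactive means mean below 50 and not all replicates reaching 50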;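 further: 0% = plate neutral controls and 100% = maraviroc near 300 nM; one replicate is shown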
MT1-MMP act inh RFP: recorded beside MT1-MMP act inh, whose call it bears; RFP signal change, %; measured here: RFP expression control read;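 0 = vehicle wells; hits needed this value within 50% of zero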
The depositor's hits bear a star; i = inactive; ? = inconclusive; . = no result given; & = joins results of further samples; [ ] = dose if it differs, or a comment.

SMILES	MT1-MMP act inh	MT1-MMP act inh RFP	PABP polyA inh	Rce1 inhib	UUG fidelity	eIF4H FP inh	CSC inhib	HIV Env fusion
COc1cccc(CN2CCC2(C)C(=O)NCCc2ccccn2)c1OC (stereo unspecified)	-0.4	1.7	.	.	-9.0	.	.	6.2
CCNc1nc(NC(C)C)nc(N(C#N)Cc2ccccc2)n1	-4.5	-10.6	9.4	i	-0.4	8.5	-5.1	.
COc1ccc(CN2CCc3cc(OC)c(OC)cc3C2)cc1O	2.1	4.4	5.3	i	4.6	8.0	-1.7	.
CCOC(=O)c1sc(Nc2cccc(Cl)c2)nc1C	2.4	2.9	-0.6	i	-13.3	5.4	41.0	-15.7
Cc1c(C(c2ccc(C(=O)O)cc2)c2c(C)n(C)n(-c3ccccc3)c2=O)c(=O)n(-c2ccccc2)n1C	-4.3	-2.0	12.6	i	-8.8	-1.9	1.3	10.0
C/C(=N\OC(=O)c1cccc(Cl)c1)c1sc(C)nc1C	1.7	4.5	-13.1	i	2.9	-4.8	-2.5	.
Cc1cc(OCC(=O)NC(Cc2ccc(Cl)cc2)C(=O)O)c2c(C)cc(=O)oc2c1 (stereo unspecified)	-1.1	2.1	-4.2	i	-6.9	-3.8	-10.4	.
CN(C)c1ccc(CNC(=O)C2(C)Cc3c(-c4ccc(N(C)C)cc4)ccnc3O2)cc1 (stereo unspecified)	3.3	-3.6	.	.	-34.0	.	.	-21.7
Cc1c(CN2CCC(CO)(CC3CCCCO3)CC2)cnn1C (stereo unspecified)	-1.8	3.4	-12.1	i	.	-8.8	1.2	9.9
Cc1ccc(C)c(S(=O)(=O)N2CCN(CC(=O)Nc3ccc4c(c3)OCCO4)CC2)c1	-0.8	2.2	-5.5	i	-5.2	-8.6	-6.0	-8.9
O=C(COC(=O)c1ccc2c(c1)OCCO2)Nc1ccc(F)cc1	2.0	0.2	.	.	-5.4	.	.	-7.0
O=C(Nc1cccc(S(=O)(=O)N2CCOCC2)c1)c1cn(-c2ccccc2)nc1-c1ccccc1	-1.5	-9.1	0.2	i	-17.8	-4.5	-4.5	7.6
Cc1ccc(C(=O)NC2CC3CCC(C2)N3Cc2ccco2)cc1 (stereo unspecified)	1.3	-1.0	-9.8	i	-9.1	-1.9	10.4	-52.0
COc1ccc(CN2CC(C(=O)NCCCN3CCOCC3)CC2=O)cc1 (stereo unspecified)	-0.9	2.4	-0.9	i	-11.7	5.2	-1.2	.
CC(=O)c1cccc(CN2CCN(CC(C)C)C(CCO)C2)c1 (stereo unspecified)	3.7	8.3	10.5	i	.	-6.6	-15.2	1.9
CN(CC(=O)Nc1ccccc1Br)C(=O)CNC(=O)c1ccco1	1.8	3.3	.	i	.	.	-11.2	2.8
COc1ccc(C(=O)NC(C)(C)C)cc1S(=O)(=O)N1CCCC1	4.5	14.5	-13.8	i	-13.3	-7.2	-15.3	-44.3
N#Cc1ccc(OCC(=O)NCC2COc3ccccc3O2)cc1 (stereo unspecified)	-3.2	-0.6	.	.	-20.0	.	-8.5	.
O=C(CNC(=O)c1ccco1)N=Nc1c(O)n(CCc2ccccc2)c2ccccc12	2.7	-8.0	12.0	i	229.0*	1.5	47.6	-434.0
COc1ccc(N(C(=O)c2ccco2)S(=O)(=O)c2cc(Cl)c(Cl)cc2Cl)cc1	-1.4	-3.5	-2.1	i	.	6.9	73.5	-10.6
Cc1ccc2c(C(=O)CSc3ccccc3)c(C)[nH]c2c1	0.4	1.2	3.1	i	-5.2	0.3	-3.5	-44.2
O=C(CSC1=NS(=O)(=O)c2ccccc2N1)Nc1cccc(F)c1	2.3	4.3	.	i	.	.	2.0	-0.1
COc1ccc(S(=O)Cc2ccc(C(=O)N3CCN(C(=O)c4ccco4)CC3)o2)cc1 (stereo unspecified)	-3.7	-4.0	-9.8	i	-13.9	-14.8	-0.7	-3.0
Cc1nc2ccccc2c(=O)n1NC(=O)c1ccccc1[N+](=O)[O-]	-0.2	1.0	0.5	i	.	1.4	-8.8	6.2
CN(Cc1ccccc1)CC(O)COc1ccc(CNCc2nccn2C)cc1 (stereo unspecified)	3.8	1.7	6.7	i	.	-3.6	10.0	-15.2
O=S(=O)(Nc1cccnc1)c1cccc(Cl)c1	-0.9	-0.5	34.3	i	.	-7.4	-5.2	-60.6
CN1CCC(N(C)S(=O)(=O)c2ccc(C(C)(C)C)cc2)CC1	-0.3	1.5	2.3	i	-3.6	6.7	24.1	-15.9
CC1(C)CCc2cc(-c3ccn(S(=O)(=O)c4ccccc4Cl)n3)ccc2O1	7.2	-4.3	-6.4	i	-10.4	-0.4	44.4	14.3
Cc1cc(C(=O)NC2CCCCC2)on1	-2.5	-4.2	-0.8	i	-13.0	-7.5	-1.8	-10.3
COCCN(C(=S)Nc1ccc(C)cc1)C(C)c1ccco1 (stereo unspecified)	-0.2	4.2	-7.0	i	-10.2	-6.9	-13.4	7.2

A different layout for part of the listing above:
Values in the order: MT1-MMP act inh, MT1-MMP act inh RFP, PABP polyA inh, Rce1 inhib, UUG fidelity, eIF4H FP inh, CSC inhib, HIV Env fusion
- O=C(CSC1=NS(=O)(=O)c2ccccc2N1)Nc1cccc(F)c1
→ 2.3, 4.3, ., i, ., ., 2.0, -0.1
- COc1ccc(S(=O)Cc2ccc(C(=O)N3CCN(C(=O)c4ccco4)CC3)o2)cc1 (stereo unspecified)
→ -3.7, -4.0, -9.8, i, -13.9, -14.8, -0.7, -3.0

Other results.
SMILES	MT1-MMP act inh	MT1-MMP act inh RFP	PABP polyA inh	Rce1 inhib	UUG fidelity	eIF4H FP inh	CSC inhib	HIV Env fusion
O=C(Cc1ccccc1[N+](=O)[O-])NC1CC2CCC1C2 (stereo unspecified)	0.4	-1.0	-2.8	i	-10.7	2.1	-9.2	8.7
S=c1[nH]c2ccccc2n2cccc12	-1.1	1.1	2.0	i	-11.6	-2.6	-13.5	-25.4
Cc1ccc(NC(=O)C2CCCN(S(=O)(=O)c3cnc[nH]3)C2)cc1C (stereo unspecified)	-5.4	0.4	5.8	i	7.0	1.8	-8.6	-28.2
c1ccc2c(c1)CCN(C1=Nc3cccc4cccc1c34)C2	37.7	66.8	3.7	.	.	?	.	-30.6
COc1ccc(C(c2sc3nc(C)nn3c2O)N2CCN(CCO)CC2)cc1OC (stereo unspecified)	6.7	6.0	5.9	i	-14.2	7.1	-0.3	-1.5
CN(C)CCCNC(=O)C(=O)Nc1ccc2c(c1)N(S(=O)(=O)c1cccs1)CCC2	-0.1	2.9	.	i	-12.2	.	.	-1.4
O=C(Nc1cc(C(F)(F)F)cc(C(F)(F)F)c1)[C@H]1O[C@@H](n2ccc(=O)[nH]c2=O)[C@H](O)[C@@H]1O	-6.5	-1.9	.	.	4.9	.	.	-3.6
COc1ccc(C2=NOC(C)(c3sc(-c4ccc(Cl)cc4)nc3C)C2)cc1 (stereo unspecified)	.	.	.	i	.	.	10.1	-29.9
COC(=O)[C@@]12CCCCN1[C@H](c1ccc(-c3ccc(F)cc3)c(OC)c1)[C@@H]1C(=O)N(C)C(=O)[C@@H]12	-7.9	-7.2	.	.	1.7	.	7.4	-0.8
Cc1ccc(C(=O)NN2C(=O)C3C(C2=O)C2C=CC3C23CC3)cc1 (stereo unspecified)	-1.4	-1.9	29.5	i	.	-0.2	-3.7	-4.7
CCCNc1nc(OC(C(F)(F)F)C(F)(F)F)nc(OC(C(F)(F)F)C(F)(F)F)n1	3.2	1.8	-3.0	i	-23.7	10.1	4.5	.
Cc1ccc2c(ccc[n+]2CC(=O)c2ccccc2)c1	-0.9	3.5	-6.2	i	-15.6	?	-14.3	.
O=C1NC(=S)S/C1=C/c1ccc(Oc2cnccn2)cc1	-2.0	3.4	1.8	.	.	-1.2	-5.9	4.0
CCN1CCN(C(=O)NCc2ccccc2)CC1	0.9	1.9	7.3	i	-10.0	3.8	-3.7	2.2
Cc1csc(N(C)C(=O)CSc2nnc(COc3ccccc3C)o2)n1	-2.7	1.9	-5.8	i	5.9	-7.7	-13.5	.
Cc1cc(C(=O)CSc2nnnn2-c2ccc(O)cc2)c(C)n1Cc1ccc2c(c1)OCO2	-13.2	-7.2	30.8	i	-12.7	33.2	-13.3	-32.1
COc1cc(C(=O)Nc2nc(-c3ccc(C)cc3)cs2)ccc1OCC(=O)N1CCOCC1	-3.5	-10.5	3.4	i	-6.2	-1.3	-13.4	6.9
CNC(=O)CSc1nnc(-c2ccco2)n1-c1ccccc1OC	0.2	2.9	-7.6	i	-5.1	-3.1	.	-44.9
O=C(NN=C1CCN(Cc2ccccc2)CC1)c1cc(Br)ccc1O	0.9	6.0	-7.1	i	.	18.4	-11.6	-14.1
CC(C)[C@H](COC=O)NC(=O)[C@H]1O[C@@H](n2ccc(N)nc2=O)[C@H](O)[C@@H]1O	0.6	-1.1	.	.	-35.8	.	.	-11.1
c1ccc2c(c1)OCC(c1nn3c(Cn4nnc5ccccc54)nnc3s1)O2 (stereo unspecified)	.	.	-0.2	i	.	6.5	7.1	.
COc1cc(OC)c(OC)cc1/C=N/NC(=O)CC1C(=O)NN=C1C (stereo unspecified)	-1.0	2.8	-5.8	i	-3.5	-9.1	-12.0	-50.0
COC1CCN(C(=O)c2ccc3oc(C(C)C)nc3c2)CC1	0.3	1.4	4.8	i	-6.7	-5.8	-20.1	-4.2
COc1ccc(C(=O)COC(=O)CCc2ccccc2)cc1	-0.3	2.6	-4.2	i	7.0	-9.3	-16.2	-0.7
COc1ccc(-c2[nH]c(-c3ccc(F)cc3)nc2SCC(=O)NC2CCCC2)cc1	-3.8	-6.1	-4.3	i	-11.6	1.4	28.4	-74.1
O=C(O)CC1S/C(=N/N=C/c2ccc(-c3ccc(Cl)cc3[N+](=O)[O-])o2)NC1=O (stereo unspecified)	2.2	0.2	28.7	i	-29.5	28.3	.	-217.2
CN(CC(=O)Nc1ccc2c(c1)OCO2)S(=O)(=O)c1cccs1	-1.6	-0.2	2.4	.	-6.8	-8.9	7.1	-27.4
CC1=CC(C)(C)N(C(=O)CN2C(=O)CCC2=O)c2ccc(C)cc21	-0.4	0.7	-3.5	.	.	0.6	1.2	6.7
O=C(C1CCCN(S(=O)(=O)c2ccccc2[N+](=O)[O-])C1)N1CCCC1 (stereo unspecified)	3.3	3.5	6.6	i	.	5.6	-10.0	-2.4
NC(=O)C1CCN(C(=O)Cn2cccc2C(=O)c2ccccc2)CC1	-0.7	0.4	-0.2	i	-15.4	-1.5	2.9	-68.7
CCn1cnc2cc(NC(=O)COc3ccc(C)cc3)ccc21	0.5	-5.0	.	.	-28.4	.	.	-0.6
O=C(CN1CC(=O)Nc2ccccc21)NCCc1ccc(Cl)cc1Cl	3.6	0.6	-4.2	i	.	2.9	2.3	11.9
Cc1ccc(NC(=O)N2CCC(NC(=O)C(C)(C)C)CC2)cc1	-4.8	-2.9	0.2	i	-14.7	-2.4	4.3	-107.3
CC(=O)N1CCN=C1SCc1c(F)cccc1Cl	0.1	1.2	-14.7	i	-14.3	-10.5	2.4	-6.5
O=C1CC(N2CCC(c3nc4ccccc4[nH]3)CC2)C(=O)N1Cc1ccccc1 (stereo unspecified)	1.0	-0.5	-6.3	i	-8.8	3.1	-9.0	.
O=C(C1=C[C@H](C2CC2)C[C@H](OCc2ccc(CO)cc2)O1)N1CCOCC1	-3.9	3.5	2.7	i	-7.0&-4.6	5.2	-15.2	-9.9[16.7 µM]
CC(C)N1CCC(N2CCN(Cc3ccc4nonc4c3)CC2CCO)CC1 (stereo unspecified)	8.3	4.9	-1.4	i	-21.3	4.2	19.3	-4.1
Brc1cc(Br)c2nc(-c3cccs3)ccc2c1	-8.1	-1.4	3.6	i	-50.4	-2.0	-0.9	.
C[C@H](CO)N1C[C@H](C)[C@@H](CN(C)S(=O)(=O)c2ccccc2)Oc2ccc(NC(=O)NC3CCCCC3)cc2C1=O	-4.2	-2.4	.	.	6.4&8.1	.	-7.7	4.7
